Screening results: PubChem BioAssay, National Center for Advancing Translational Sciences (NCATS)
Tau ThT inhib: tau fibrillization inhibition (ThT binding) | P10636 | recombinant tau K18 P301L, heparin-induced fibrillization, ThT fluorescence | Potency, µM (doses to about 57.4 µM), for the others: at the highest dose activity, negative = inhibition, actives largely listed as inhibitors | 270,000 compounds, 2.1% hits; further: nearly all actives have a fitted effect of over 55% in size
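In this qHTS, human K18 P301L tau is incubated with compound and heparin for 6 hr at 37 C, and Thioflavin T fluorescence then reports fibril load.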
TR SRC2 fluor cs: counter-screen for TRb-SRC2 inhibitors: fluorescence interference. TRb/SRC2 Texas Red total fluorescence interference. Potency, µM (doses to about 106 µM), for inactives: top-dose fluorescence change, negative = quenching. 280,000 compounds, 0.29% hits. AID 1479; active means well fitted curve in either direction with a large enough effect; inconclusive means small, poorly fitted or top-dose-only effect
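Human TRβ ligand-binding domain (0.6 uM) and Texas Red SRC2 peptide (20 nM) in Tris buffer with 1 uM T3 and 5% DMSO were incubated with pinned compound for 5 hr at ambient temperature. Total fluorescence was computed as S + 2P (555/632 nm).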
L3MBTL1 inh: inhibitors of human L3MBTL1; Q9Y468; AlphaScreen L3MBTL1–H3K9me1 peptide binding; Potency, µM (highest dose often 57.1 µM), for the others: top-dose activity, negative = inhibition, most hits filed as inhibitors; 230,000 compounds, 0.66% hits; AID 485360; further: nearly all actives have a fitted effect of over 60% in size
Target sequence (Q9Y468 whole entry, looked up): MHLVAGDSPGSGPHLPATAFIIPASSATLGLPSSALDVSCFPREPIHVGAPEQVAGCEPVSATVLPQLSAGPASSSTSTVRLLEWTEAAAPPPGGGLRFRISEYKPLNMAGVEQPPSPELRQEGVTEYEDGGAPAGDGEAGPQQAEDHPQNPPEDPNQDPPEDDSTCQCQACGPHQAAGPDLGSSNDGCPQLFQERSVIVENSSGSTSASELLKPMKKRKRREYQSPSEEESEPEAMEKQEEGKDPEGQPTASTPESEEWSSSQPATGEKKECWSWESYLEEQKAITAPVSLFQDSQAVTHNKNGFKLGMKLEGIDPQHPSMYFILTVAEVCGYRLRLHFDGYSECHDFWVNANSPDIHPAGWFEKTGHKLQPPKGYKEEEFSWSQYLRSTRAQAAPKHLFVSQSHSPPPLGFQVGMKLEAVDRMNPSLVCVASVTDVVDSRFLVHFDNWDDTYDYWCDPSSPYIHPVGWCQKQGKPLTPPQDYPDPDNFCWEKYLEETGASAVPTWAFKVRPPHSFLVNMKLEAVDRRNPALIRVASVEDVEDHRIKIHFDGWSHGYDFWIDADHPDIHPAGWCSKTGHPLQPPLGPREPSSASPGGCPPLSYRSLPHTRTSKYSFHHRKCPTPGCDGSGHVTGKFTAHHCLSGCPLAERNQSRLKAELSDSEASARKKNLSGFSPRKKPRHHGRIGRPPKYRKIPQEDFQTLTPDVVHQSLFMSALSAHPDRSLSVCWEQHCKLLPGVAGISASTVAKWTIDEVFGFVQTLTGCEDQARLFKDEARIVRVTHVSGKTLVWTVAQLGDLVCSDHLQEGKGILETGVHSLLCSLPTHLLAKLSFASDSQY
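AlphaScreen assay: L3MBTL1 (50 nM final) was preincubated 30 min at room temperature with biotinylated H3(1-15)K9me1 peptide (75 nM final), then 30 min with library compounds; streptavidin donor and nickel chelate acceptor beads (10 ug/mL final) added, 30 min dark.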
Tau fluor cs: counter-screen for tau fibril formation inhibitors. 280,000 compounds, 0.93% hits. tau K18 P301L Alexa594 fluorescence, heparin fibrillization. Potency, µM (series often up to 57.7 µM), inactives show top-dose activity change, negative = decrease; further: nearly all actives have a fitted effect of over 55% in size
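Human tau K18 P301L (15 uM unlabeled, 0.24 uM Alexa 594-labeled) in 100 mM sodium acetate pH 7 with 20 uM heparin, 6 hr at 37 C. ThT 30 uM added, 1 hr ambient; Alexa 594 FP and total fluorescence read at 555/632 nm.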
aGal spleen mod: inhibitors or activators of human alpha-galactosidase in spleen homogenate | Potency, µM (series often up to 80 µM), for inactives: top-dose activity change, negative = inhibition, usual class: inhibitors | 240,000 compounds, 0.008% hits | human spleen homogenate, 4MU-alpha-Gal fluorescence, 40 min;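 further: 0% = enzyme with vehicle and -100% = no enzyme basal signal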
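Human spleen homogenate (1 ug) was the enzyme source, with 4-methylumbelliferyl-alpha-D-galactopyranoside (1 mM final) in pH 5.0 citrate buffer with 0.01% Tween-20. Compounds were titrated; after 40 min at 37C, NaOH/glycine stop, 4-MU fluorescence read; AC50 from Hill fits.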
Tau fibril FP: inhibitors of human tau fibril formation; P10636; K18 P301L tau heparin fibrillization, Alexa594 FP, 6 h; Potency, µM (top dose mostly 57.7 µM), for inactives: at the highest dose activity, negative = inhibition, hits mostly inhibitors; 280,000 compounds, 0.39% hits; further: nearly all actives have a fitted effect of over 55% in size
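Steps: dispense K18 P301L tau (15 uM plus 0.24 uM Alexa 594 tracer, final) in pH 7 sodium acetate; add compound; add heparin (20 uM final); incubate 6 hr, 37 C; add ThT (30 uM final); after 1 hr ambient, read FP.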
TRb-SRC2 inh: TRbeta-SRC2 interaction inhibition; P10828; TRbeta-SRC2 peptide binding, fluorescence polarization; receptor liganded with 1 µM T3; Potency, µM (top dose mostly 106 µM), for inactives: top-dose activity change, negative = inhibition, most hits filed as inhibitors; 280,000 compounds, 0.065% hits; AID 1469;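 further: plate controls were bound peptide for no effect and peptide without receptor for full effect; nearly all actives have a fitted effect of over 50% in size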
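Compounds were added to 0.6 uM TRb ligand-binding domain and 20 nM Texas Red-labeled SRC2 peptide in Tris buffer containing 1 uM T3, incubated 5 hr at ambient temperature, then read by fluorescence polarization.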
Starred values were filed as active, the others as inactive; ? = inconclusive; . = not tested or not shown; [ ] = remark or other dose. Unless noted, the call rests on the fitted dose curve; in most records, active means well fitted curve in the direction sought with a large enough effect; inconclusive means small, poorly fitted or top-dose-only effect, or another doubt; inactive means no such curve, though single readings can be large; an effect the other way counts as inactive or inconclusive. Unless noted, on the % scale 0 is the no-effect control and ±100 the full control effect; potency means the concentration at half of the fitted maximal effect.

Each structure is followed by: Tau ThT inhib | TR SRC2 fluor cs | L3MBTL1 inh | Tau fluor cs | aGal spleen mod | Tau fibril FP | TRb-SRC2 inh
> CC(=O)N(Cc1ccccc1C)c1cccc(C)c1C
→ -5% | 2% | 2%[11.4 µM] | -4% | 0% | -2% | -5%
> O=C(NC1CCCCC1)C(c1ccc(F)cc1)N(Cc1ccco1)C(=O)c1ccccn1 (centres undefined)
→ -2% | 0% | 5% | -1% | -2% | 8% | 7%
> COCC(=O)NNC(=S)Nc1cccc(C)c1C
→ -6% | -1% | 8% | -7% | 1% | -9% | 3%
> COc1cc(NS(=O)(=O)c2cc(C(=O)N3CCN(C(C)=O)CC3)ccc2OC)cc(OC)c1
→ 1% | 6% | 8% | 2% | 2% | -2% | 7%
> COc1cccc2c1OC1(C)CC2NC(=O)N1Cc1ccccc1 (centres undefined)
→ 2% | -7% | . | -3% | -15% | 1% | 2%
> CCCS(=O)(=O)c1nc(C)cc(C)c1S(C)(=O)=O
→ 4% | -1% | 10% | 7% | 4% | 4% | -1%
> CCOC(=O)C1CCN(C(=O)C(C)N(c2ccc(Oc3ccccc3)cc2)S(C)(=O)=O)CC1 (centres undefined)
→ ? | 0% | 0% | -13% | 1% | -3% | 5%
> Cc1cc(C(=O)O)ccc1[N+](=O)[O-]
→ . | -3% | 1% | . | -3% | . | 5%
> Cc1c(N(C(=O)c2cnccn2)C2(C(=O)NC3CCCC3)CCCCC2)c(=O)n(-c2ccccc2)n1C
→ -4% | 2% | . | -8% | -8% | 3% | 0%
> COc1cc(C2C(N3C(=O)c4ccccc4C3=O)C(=O)N2c2cccc(C)c2)cc(OC)c1OC (centres undefined)
→ 3% | -1% | -2% | 4% | -9% | 10% | 5%
> COc1ccc(-c2nc(CN3CCC(C(=O)N4CCc5ccccc54)CC3)c(C)o2)cc1OC
→ -14% | -2% | . | -3% | 5% | 7% | 0%
> COc1ccc(S(=O)(=O)N(CC(=O)NCCCN(C)C)c2ccc(C)cc2)cc1OC
→ -2% | 5% | 11% | -15% | -3% | ? | 0%
> COc1ccc(N2CCN(CCNC(=O)CCN3C(=O)COc4ccccc43)CC2)cc1
→ -14% | 2% | -24%[11.4 µM] | -7% | -15% | 10% | -13%
> Cc1cccc(NC(=O)CN2C(=S)NC(C)(C)CC2C)c1 (centres undefined)
→ -9% | 0% | 10% | -3% | 6% | 1% | -3%
> C=CCn1c(SCC(=O)Nc2c(C)n(C)n(-c3ccccc3)c2=O)nc2scc(-c3ccccc3)c2c1=O
→ -6% | -5% | . | -3% | 2% | 1% | 0%
> C#CC[N+]1(CC#Cc2cccc3ccccc23)CCOCC1
→ -3% | -2% | 10% | -2% | -5% | -1% | -1%
> O=C(Cc1ncn[nH]1)NCCc1ccccc1
→ 7% | -4% | -2% | 3% | -5% | -3% | -1%
> CCOC(=O)C1=C(C)N=C2SC(C(=O)OC)=CC(=O)N2C1c1cc(OC)c(OC)c(OC)c1 (centres undefined)
→ ? | 1% | -3% | -19% | 1% | -12% | -17%
> CC(=O)Nc1ccccc1C(=O)N1CC(C)OC(C)C1 (centres undefined)
→ 2% | 2% | 5% | 6% | 0% | 8% | 2%
> COc1ccc2cc([C@@H](C)C(=O)O)ccc2c1
→ . | . | 4% | . | . | . | .
> Cc1ccc(/C=N\NC(=O)COc2ccc(C)cc2[N+](=O)[O-])cc1
→ ? | -2% | . | -13% | 9% | -3% | 4%
> CCN1CCN(C(c2ccc(OC)c(OC)c2)c2nnnn2C(C)(C)C)CC1 (centres undefined)
→ 7% | 0% | . | 10% | -1% | 8% | -3%
> CCCCN(C(=N)N1CCCCC1)c1nc(C)c([N+](=O)[O-])c(=O)[nH]1
→ -8% | 1% | 5% | -2% | 0% | 1% | -3%
> CCOc1ccc(/C=N/O)cc1
→ 0% | 1% | . | 2% | 6% | 11% | -5%
> COc1ccc(OC)c(Nc2nc(-c3sc(C)nc3C)cs2)c1
→ 14µM* | -7% | -20% | ? | 4% | ? | -2%
> COc1cccc(C2NC(c3cccc(OC)c3O)C(C)C(=O)C2C)c1O (centres undefined)
→ -9% | 0% | -3% | -5% | 1% | -2% | -1%
> Nn1c(SCC(=O)Nc2ccccc2)nnc1C1CCCCC1
→ . | . | 0% | . | . | . | .
> Cc1ccc2c(C)nc(Nc3nc(CSc4nnc(C)s4)cc(=O)[nH]3)nc2c1
→ ? | 6% | -2% | -2% | -6% | 14% | -12%
> COc1ccc(NC2=NCC(=O)N2Cc2cccs2)cc1
→ -11% | -5% | -5% | -7% | 3% | -3% | 1%
> O=C(Nc1ccc(S(=O)(=O)Nc2ncccn2)cc1)c1ccc(Br)s1
→ -1% | -1% | . | -7% | -2% | 1% | -5%
> CC(C)CN(CC(C)C)S(=O)(=O)N1CCC(C(=O)NCc2ccccn2)CC1
→ -1% | 0% | 5% | -3% | -3% | 0% | -2%
> N=C1/C(=C/c2ccc(-c3cccc(C(=O)O)c3)o2)C(=O)N=C2SC=C(c3ccccc3)N12
→ 4.5µM* | ? | . | -7% | 16% | 15% | 18%
> CCOC(=O)c1c(C)nc2ccc(Cl)cc2c1-c1ccccc1
→ -12% | -3% | 27% | -9% | -6% | -5% | 2%
> CCC(SC1=N/C(=C/c2ccccc2OC)C(=O)N1c1ccccc1)C(=O)Nc1cc(C)on1 (centres undefined)
→ ? | -2% | -7% | ? | -11% | ? | 0%
> Cc1cccc(C)c1NC(=O)Cn1nnc(-c2ccc(CN3CCC(C)CC3)cc2)n1
→ -3% | 1% | 4% | 2% | 1% | 2% | 6%
> CC1CCC(C(=O)NC(C(=O)NCc2cccnc2)C(C)C)CC1 (centres undefined)
→ -16% | -1% | . | -13% | 11% | -11% | -7%
> Fc1ccccc1CSCc1nc2ccccc2[nH]1
→ -6% | 0% | -1% | -4% | -7% | 1% | 3%
> O=C(NCCOc1ccccc1)c1cc2ccccc2o1
→ -3% | 2% | . | -4% | -4% | 0% | 5%
> O=C(CSc1ncccn1)N1CCCc2ccccc21
→ -8% | -1% | . | -7% | 1% | -3% | 6%
> COc1ccc2c(c1)CCCC21NC(=O)N(CC(N)=O)C1=O (centres undefined)
→ 0% | -1% | 1% | 4% | 3% | -1% | -10%
> Cc1ccc(N(CC(=O)Nc2ccc3c(c2)OCCO3)S(=O)(=O)c2c(C)noc2C)cc1
→ -9% | -3% | -5% | ? | 8% | -5% | 1%
> Cc1cc(C)n2nc(C(F)(F)F)c(-c3ccccc3)c2n1
→ -9% | -3% | 17% | -15% | 12% | -5% | 3%
> COc1ccc2c(c1)O[C@@H](c1cccc(C(F)(F)F)c1)[C@H](OC(=O)NCc1ccco1)C2=O
→ -11% | -3% | . | -11% | 2% | -4% | 4%
> CCS(=O)(=O)c1ccc2oc(Nc3cccc(OC)c3)nc2c1
→ -16% | 1% | 3% | ? | 14% | ? | 0%
> Cn1cnnc1SCC(=O)Nc1ccccc1C(=O)NC1CCCC1
→ -4% | 0% | 0% | 1% | -5% | -1% | 9%
> CC(C)(CS)C(=O)N1CCC[C@H]1C(=O)O
→ . | -3%[53 µM] | . | . | 12%[29.1 µM] | . | -1%[53 µM]
> N#CCCn1c(SCC(=O)c2c[nH]c3ccccc23)nc2ccccc21
→ ? | -2% | 0% | ? | 7% | -12% | 0%
> CC(C)OC(=O)CN1CCN(C2c3ccccc3-c3ccccc32)CC1
→ -5% | -3% | 1% | -3% | -3% | 2% | -5%
> C=CCn1c(SCC(=O)Nc2cc(OC)c(NC(=O)c3ccco3)cc2OC)nnc1-c1ccncc1
→ ? | -3% | -20% | -15% | 5% | 3% | -8%
> CCC(C)NC(=O)CN(c1ccc2c(c1)OCO2)S(=O)(=O)c1c(C)n[nH]c1C (centres undefined)
→ -5% | -1% | -1% | 3% | -8% | 5% | 0%
> NC(=O)COC(=O)c1ccccc1OCc1ccccc1Cl
→ -2% | -2% | 1% | -7% | -11% | -3% | -10%
> O=C(OCC(CO)OC(CO)n1ccc(=O)[nH]c1=O)c1ccccc1 (centres undefined)
→ -4% | 0% | 2% | -1% | -4% | 1% | 5%
> CCOC(=O)COc1nc(Nc2ccccc2C)nc(N(C)C)n1
→ -8% | -1% | 1% | -1% | -4% | -2% | 0%
> O=C1CSC(c2ccccc2F)N1CCN1CCCCC1 (centres undefined)
→ 2% | -7% | 0% | 4% | -10% | -2% | 2%
> Cc1nn(-c2ccccc2)c(Cl)c1/C=N/O
→ 0% | -3% | 2% | 4% | -1% | 2% | 4%

These rows are one share of the data; rates above refer to the full screens.
